Biofilm kill mix: mixtures killing C. albicans biofilm; C. albicans biofilm persisters + clotrimazole, fluorescence viability; primary screen in compound mixtures of four per well; inhibition, % at 7.6 µM; 0.02% of 120,000 active;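 active means inhibition above 30.3% in the primary screen of four-compound pools, then above 30% when the compound was retested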;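 further: compounds exposed to preformed 24 h biofilms for 48 h; the number belongs to the whole pool; some results filed as inactive read as strong as hits; inactives centre near 12; 0% = biofilm with clotrimazole alone and 100% = kill control; retested singly at about 60 µM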
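Probe or stimulus – Clotrimazole 50 µg/mL co-treatment · System – C. albicans biofilms · Schedule – 24 h biofilm formation, then 48 h compound exposure, 37 °C · Evaluation – percent inhibition of biofilm viability · Technique – 2-h Alamar Blue fluorescence, 535/590 nm excitation/emission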
Starred values were filed as active, the others as inactive.

SMILES | Biofilm kill mix
Clc1ccc(OCCCN2CCCCC2)c(Br)c1 | 9
O=C(CCCN1C(=O)c2cccc3cccc(c23)C1=O)N1CCN(c2ccccc2)CC1 | 17
Cc1cccc(-n2nnc3c(=O)n(Cc4ccccn4)cnc32)c1 | 12
CN(c1ccc([N+](=O)[O-])cc1/C=N/NC(=O)COc1ccccc1)C1CCCCC1 | 5
N#CC1=C(S)N(c2ccccc2)C(c2ccc(-c3ccccc3Cl)o2)NC1=O (stereo not given) | 0
COCc1cc(CN2CCN(Cc3ccsc3)C(CCO)C2)ccc1OC (stereo not given) | 8
O=c1oc(-c2cccc(C(F)(F)F)c2)nn1-c1ccc(C(F)(F)F)cn1 | 1
S=C(Nc1ccccc1)Nc1cccc(Br)c1 | 7
CCn1nc(C(=O)OCC(=O)NCC(C)C)c2ccccc2c1=O | 9
Cc1cc(NC(=O)COC(=O)CCNS(=O)(=O)c2cccc(C(F)(F)F)c2)no1 | 14
OC(COCc1ccc(Cl)cc1)CN1CCc2ccccc2C1 (stereo not given) | 9
CC(=O)NC1(C(F)(F)F)N=C(c2ccccc2)NC1=O (stereo not given) | 5
CCOC(=O)/C(C#N)=C/c1cn(CCC(=O)O)nc1-c1cccc(Cl)c1 | 29
Cc1cc(C)c2nc(SCC(=O)N3CC(=O)Nc4ccccc43)c(C#N)cc2c1 | 7
CC(Sc1nncn1-c1ccccc1)C(=O)Nc1cccc([N+](=O)[O-])c1 (stereo not given) | -15
CCCN(CCC)C(C)C(=O)NCC1(c2ccccc2)CCCC1 (stereo not given) | 20
O=C1CC(N2CCSCC2)C(=O)N1c1cccc(Br)c1 (stereo not given) | 8
CCOC(=O)C1CCCN(c2cc(NCCCO)c([N+](=O)[O-])c3nonc23)C1 (stereo not given) | 15
Cc1nc([N+](=O)[O-])cn1Cc1cccc([N+](=O)[O-])c1 | 20
O=C(NCCCN1CCOCC1)C1Cc2c(ccc3ccccc23)O1 (stereo not given) | 11
Cc1cc(C[n+]2cc(Cl)ccc2N)c2ncccc2c1 | 16
O=c1cc2c(nn1Cc1ccccc1)-c1ccccc1CC2 | 17
CCn1c(CSCc2ccc(Cl)cc2)n[nH]c1=S | 9
Nc1nc(C23CC4CC(CC(C4)C2)C3)[nH]c(=O)n1 | 19
Cc1ccc(CNC(=O)CN(c2cccc([N+](=O)[O-])c2)S(=O)(=O)c2ccccc2)cc1 | 6
COc1ccc2c(c1)nc(SCC(O)c1ccccc1)n2C (stereo not given) | 11
O=C(/C=C/Nc1ccccc1F)c1ccc(Br)cc1 | 9
O=C(N/N=C/c1cccs1)c1cncc(Br)c1 | -14
O=C(O)CCCNC(=O)Nc1ccccc1 | 12
Cc1nc2cc(C(=O)O)ccc2n1C1CCCCC1 | -3
COc1ccc(OCC(=O)O/N=C(\N)c2ccc(OC)cc2)cc1 | 23
COc1cc(CNC(C)(C)CO)cc(Br)c1OCc1ccc(Cl)cc1Cl | 7
Cc1c(Cl)cccc1NC(=S)N1CCc2ccccc2C1 | 15
CC(=O)OCC(=O)Nc1c(C)cc(C)cc1C | 12
CCOc1ccccc1OCC(=O)NNC(=O)Cn1cnc2c1c(=O)n(C)c(=O)n2C | 11
O=C(CSc1ccccc1)NC1=NCCS1 | 13
NS(=O)(=O)c1ccc(NC(=O)Nc2ccc(S(N)(=O)=O)cc2)cc1 | 2
COC(=O)c1cc2c(s1)-c1ccc(OC)cc1CC2 | 4
Cc1nnsc1C(=O)NCc1c(F)cccc1Cl | 16
CCOc1cc(/C=N/NC(=O)c2cc(C)n(-c3ccc(F)cc3)c2C)ccc1O | 20
O=C(Nc1cccc2ccccc12)N1N=CCC1c1ccccc1 (stereo not given) | 22
O=C(c1cnn(C(=O)c2ccccc2)c1)c1ccccc1O | 18
Nc1nc2nn(-c3ccccc3)nc2c(=O)[nH]1 | 12
CC(NCc1ccc(F)cc1)C(=O)NC1CCCCC1 (stereo not given) | 5
O=C(Oc1ccccc1)c1cccnc1Oc1ccccc1 | 21
CN(c1ccccc1)S(=O)(=O)c1ccc(NC(=S)NC(=O)C2CC2)cc1 | 12
Cc1cccc(Nc2c(-c3ccc(O)cc3)nc3ncccn23)c1 | 8
COC(=O)/C(N=Nc1c(C)n(C)n(-c2ccccc2)c1=O)=C(\C)O | 8
C=CCN1C(=O)C(CC(=O)O)SC1=Nc1ccc(N=Nc2ccccc2)cc1 (stereo not given) | 12
COc1ccccc1C(=O)NC(=S)Nc1ccc(NC(=O)c2ccco2)cc1 | 3
NS(=O)(=O)c1ccc(NC(=O)COC(=O)c2cn(-c3ccccc3)nc2-c2ccc(F)cc2)cc1 | 7
N#Cc1ccccc1NC(=S)Nc1ccc(F)cc1 | 23
Cc1cc(C)cc(C(=O)NC(=S)Nc2ccc(-c3cc4ccccc4oc3=O)cc2)c1 | 7
Cc1nc2ccccn2c1-c1ccnc(=S)[nH]1 | 10
Cc1ccccc1C(=O)NC(=S)Nc1ccc(N2CCOCC2)cc1 | 13
CCN(CC)C(=O)CC(c1cc(OC)c(OC)c(OC)c1)c1c(OC)cc(OC)c2c(-c3ccccc3)cc(=O)oc12 (stereo not given) | 24
COc1cc(Br)c(Br)c(Br)c1N | 20
CCCc1cc(=O)oc2c(CN(CC)CC)c(O)c(Cl)cc12 | 22
CN1CCN(C(=S)Nc2cccc(Cl)c2)CC1 | 11
CCN(CC)CCOc1ccc2c(c1)C(=NNC(=O)c1ccccn1)c1cc(OCCN(CC)CC)ccc1-2 | 12
The results go on.
SMILES | Biofilm kill mix
CCCCNC(=O)CCn1c(=O)c2ccccc2n(CC(=O)NCCc2ccc(OC)c(OC)c2)c1=O | -3
CC(C)c1ccc(OCC(=O)N2CCCCCC2)c(Br)c1 | 17
CC12CCC(C(=O)N(CC(O)CN3CCN(Cc4ccccc4)CC3)C1=O)C2(C)C (stereo not given) | 23
CCCCc1c(C)nc2c(OC)cccc2c1SCCC(=O)O | 10
CN(C)CCCNc1nc2sc3c(c2c(=O)n1CCc1ccccc1)CCCCC3 | 9
COc1ccc(/C=N/NC(=O)CCOc2ccccc2C)cc1OC | 6
CCOc1ccccc1-n1c(CNc2ccc(F)cc2)nnc1SCC(=O)NCc1ccco1 | 9
Cc1ccc(C)c(Oc2coc3cc(OCC(=O)Nc4ccccc4C(C)C)ccc3c2=O)c1 | 5
C=CCN(c1ccc(C(=O)Nc2ccc(NC(C)=O)cc2)cc1)S(C)(=O)=O | 7
Cc1ccccc1N1C(=S)NC2c3ccccc3OC1(C)C2C(=O)N(C)C (stereo not given) | 13
CCc1ccc(-n2c(=O)c3ccccc3n(CC(=O)NCc3ccco3)c2=O)cc1 | 28
Cc1ccc(/C=N/n2c(-c3ccncc3)n[nH]c2=S)cc1 | 7
COc1ccc(Nc2ccc(N3C(=O)CC(C)C3=O)cc2[N+](=O)[O-])cn1 (stereo not given) | 18
O=C(c1cccs1)N(c1cccc(Cl)c1)C1C=CS(=O)(=O)C1 (stereo not given) | 10
COc1ccc(CCNC(=O)CSCc2ccc(F)cc2)cc1OC | 13
COc1ccc(OC)c(C(=O)c2ccc(C(=O)N3CCN(Cc4csc(C)n4)CC3)cc2)c1 | 1
CCc1nnc(N2C(=O)c3ccccc3C2(O)c2ccccc2)s1 (stereo not given) | 27
COc1ccc(Cl)cc1C(=O)CSc1nnnn1C | 25
CC(C)CN1CCN(Cc2nc(C(C)C)cs2)CC1CCO (stereo not given) | 15
COc1ccc(CC(=O)O)cc1O | 20
O=C(Nc1ccc(N2CCN(C(=O)c3ccccc3)CC2)cc1)c1ccc([N+](=O)[O-])o1 | 5
CSc1nc(C)cc(C)c1C(N)=O | -6
CC1(C)CC(=O)C2=C(C1)N(c1ccccc1)C(=O)CC2c1ccc(O)cc1 (stereo not given) | 6
COc1ccc(-c2[nH]ncc2C=O)cc1OC | 18
COC(=O)CCCCC1SCC2NC(=O)NC21 (stereo not given) | 21
O=C(CSc1nc2ccccc2[nH]1)Nc1nc(-c2ccccc2)c(-c2ccccc2)o1 | 16
O=S(=O)(c1cccc(C(F)(F)F)c1)N1CCCC1c1cccnc1 (stereo not given) | 20
O=C(O)/C=C/C(=O)NCCCc1ccccc1 | 6
CCc1ccc2c(CN3CCc4cc(OC)c(OC)cc4C3)cc(=O)oc2c1 | -11
COc1cccc(CNC(=O)CN2CCC(c3nc4ccc(C)cc4[nH]3)CC2)c1 | 11
CN(C)/C=N/c1nc2nccc(-c3ccc(Cl)cc3)n2n1 | 8
COc1ccc2cc3c(N)nn(C(=O)Cc4c[nH]c5ccccc45)c3nc2c1 | 15
Cc1cc(C)c(-n2nnnc2SCC(=O)c2cccs2)c(C)c1 | 26
CCNC(=S)Nc1ccc(S(=O)(=O)Nc2cc(C)nc(C)n2)cc1 | 21
CCCCCN1CC(O)=C(c2nc3ccccc3[nH]2)C1=N | 13
CC(Sc1nnnn1C1CCCCC1)C(=O)O (stereo not given) | 13
CC(=O)Nc1ccc(C(=O)OCC(=O)/C(C#N)=C(\C)N)cc1 | 14
Cn1nc(-c2ccccc2)c2cc(C(=O)O)sc21 | 15
CCCn1ncc([C@@H]2C[C@H]3CN(Cc4cccc(Cl)c4)C(=O)[C@]34CCCN24)c1C | 15
COc1ccccc1NC(=O)Nc1cccc(C(=O)O)c1 | 17
Cc1ccc(-n2c(SCC(=O)N/N=C/c3c(C)nn(-c4ccccc4)c3C)nc3ccccc3c2=O)cc1 | 15
O=C(CSc1n[nH]c(-c2ccccc2F)n1)NCC(=O)Nc1ccc(F)c(F)c1F | 14
COc1ccccc1CNC(=S)NC1CCCC1 | 16
COc1ccccc1NS(=O)(=O)c1ccc(C)c(NC(=O)NCCCl)c1 | -4
Cc1ccc(C)c(NC(=O)CSc2nc3c(oc4ccccc43)c(=O)n2-c2ccccc2)c1 | 6
CCOC(=O)Cc1csc(NC(=O)CSc2nnc3ccccn23)n1 | 12
CCC(Cc1ccccc1)NC(=O)Cn1ncc2ccsc2c1=O (stereo not given) | 7
COc1ccc(-n2c(=O)c3c(C)c(C)sc3n(Cc3cccc(F)c3)c2=O)c(OC)c1 | 5
Cc1c(NC(=O)Nc2ccccc2Cl)sc(=S)n1C | 17
Cc1cccc(C)c1NC(=O)COC(=O)c1c2c(nc3ccccc13)/C(=C\c1ccc3c(c1)OCO3)CCC2 | 6
O=C(Nc1ccc(F)c(Cl)c1)Nc1cnccn1 | 8
COc1ccccc1CC(=O)NCC(c1ccco1)N1CCCCC1 (stereo not given) | 9
Cc1onc(-c2ccccc2Cl)c1C(=O)NC(=S)NCC(=O)c1ccccc1 | 3
Cc1nc(N2CCCCC2)c(C#N)c(C)c1[N+](=O)[O-] | 2
CC(=O)c1cccc(NC(=O)CSC(=O)c2ccccc2)c1 | 19
Cc1[nH]c2ccccc2c1C(=O)CSc1nc2ccccc2c(=O)n1-c1ccccc1F | 11
CN(c1ccccc1)S(=O)(=O)c1cccc(NC(=O)c2ccc3ncsc3c2)c1 | 10
Cc1ccc(NCCC#N)cc1C | 13
CCCCNc1nc2ccccc2n1CC(=O)Nc1c(C)cccc1CC | 17
N#C/C(=C/c1ccc(Br)o1)C(N)=O | 11
Continued.
SMILES | Biofilm kill mix
O=C(C[n+]1ccc(C(=O)NCc2ccccc2)cc1)c1ccc2c(c1)OCCO2 | 4
Cc1cccn2c(CN3CCNC(=O)CC3)c(C(=O)N(C)CCc3ccccc3)nc12 | -3
CCN(CC)S(=O)(=O)c1ccc(NC(=O)c2cc(C(=O)OC)cc([N+](=O)[O-])c2)cc1 | -9
Cc1ccc[n+](CC(=O)c2ccc(-c3ccccc3)cc2)c1 | 20
Cc1cc(NC(=O)CSc2nc3ccccc3n2CC(=O)N2CCC(C)CC2)no1 | 16
CC(C)(C)Cc1cc(N)on1 | 8
Cc1ccccc1C(=O)Nc1ccnc(-c2ccncc2)n1 | 18
CSc1nc(-c2ccc(Cl)cc2Cl)[nH]c(=O)c1C#N | 11
CSc1nnc(COc2ccc(C)cc2)n1N | 13
O=C1OCc2ccc(NC(=O)c3sccc3Cl)cc21 | 21
CCC(=O)Nc1ccc(OCc2nc3ccccc3s2)cc1 | -6
CN(C)Cc1ccc(F)cc1Sc1ccc(Cl)cc1Cl | 15
O=C(O)CN(c1ccccc1)S(=O)(=O)c1cc(C(F)(F)F)cc(C(F)(F)F)c1 | 14
Cc1ccc(-c2csc(C3=C(O)CN(NC(=O)c4ccc([N+](=O)[O-])cc4)C3=N)n2)cc1 | 15
CC(C)CCNC(=O)c1ccc2c(SCC(=O)O)c3c(nc2c1)CCC3 | 10

16 of these compounds, reformatted.
| structure | Biofilm kill mix |
| --- | --- |
| CN(c1ccccc1)S(=O)(=O)c1cccc(NC(=O)c2ccc3ncsc3c2)c1 | 10 |
| Cc1ccc(NCCC#N)cc1C | 13 |
| CCCCNc1nc2ccccc2n1CC(=O)Nc1c(C)cccc1CC | 17 |
| N#C/C(=C/c1ccc(Br)o1)C(N)=O | 11 |
| O=C(C[n+]1ccc(C(=O)NCc2ccccc2)cc1)c1ccc2c(c1)OCCO2 | 4 |
| Cc1cccn2c(CN3CCNC(=O)CC3)c(C(=O)N(C)CCc3ccccc3)nc12 | -3 |
| CCN(CC)S(=O)(=O)c1ccc(NC(=O)c2cc(C(=O)OC)cc([N+](=O)[O-])c2)cc1 | -9 |
| Cc1ccc[n+](CC(=O)c2ccc(-c3ccccc3)cc2)c1 | 20 |
| Cc1cc(NC(=O)CSc2nc3ccccc3n2CC(=O)N2CCC(C)CC2)no1 | 16 |
| CC(C)(C)Cc1cc(N)on1 | 8 |
| Cc1ccccc1C(=O)Nc1ccnc(-c2ccncc2)n1 | 18 |
| CSc1nc(-c2ccc(Cl)cc2Cl)[nH]c(=O)c1C#N | 11 |
| CSc1nnc(COc2ccc(C)cc2)n1N | 13 |
| O=C1OCc2ccc(NC(=O)c3sccc3Cl)cc21 | 21 |
| CCC(=O)Nc1ccc(OCc2nc3ccccc3s2)cc1 | -6 |
| CN(C)Cc1ccc(F)cc1Sc1ccc(Cl)cc1Cl | 15 |

This is a subset; count on the stated rates, not on these rows.
